Screens deposited in PubChem BioAssay by National Center for Advancing Translational Sciences (NCATS).
gsp antagonist = antagonists of gsp mutant (McCune-Albright syndrome); gsp-mutant cells, cAMP HTRF, 30 min; control for the full effect not named in the record; Potency, µM (titrated, usually from 76.9 µM), without a hit: at the highest dose activity change, negative = inhibition, usual class: inhibitors; 340,000 compounds, 0.4% hits; AID 624288; active = falling curve of any shape with a large fitted effect; inconclusive = falling curve, mostly with a smaller effect; inactive = flat or rising curve; cell line not stated here;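 note: intracellular cAMP measured with PDE inhibitor Ro 20-1724 present during compound exposure; potency is the fitted concentration of half-maximal effect; % is set by controls: 0 for no effect and ±100 for the full control effect; nearly all actives have a fitted effect of over 65% in size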
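HTRF cAMP read-out (cAMP-d2 plus anti-cAMP antibody-K in lysis buffer, 30 min RT). Before lysis, cells are exposed to compounds with […] for 30 min at 37C in DPBS containing Ca/Mg, BSA and Tween 20.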
ClpP mod = qHTS Assay for Activators of ClpP | 340,000 compounds, 1.9% hits | ATP-dependent Clp protease proteolytic subunit (Bacillus subtilis (strain 168)), P80244 | Potency, µM (titrated, usually from 57.5 µM), without a hit: at the highest dose activity change, negative = active | AID 651965, 2013 | purified B. subtilis ClpP, FRET peptide cleavage, 20 min; active = well fitted falling curve with a large enough effect; inconclusive = small, poorly fitted or top-dose-only effect; inactive = no such curve, though single readings can be large or run the other way; note: potency is the fitted concentration of half-maximal effect; the source files actives as falling curves though it sought activators and does not explain the sign; nearly all actives have a fitted effect of over 65% in size; many hits overshoot -100%
Target sequence (P80244 whole entry, looked up): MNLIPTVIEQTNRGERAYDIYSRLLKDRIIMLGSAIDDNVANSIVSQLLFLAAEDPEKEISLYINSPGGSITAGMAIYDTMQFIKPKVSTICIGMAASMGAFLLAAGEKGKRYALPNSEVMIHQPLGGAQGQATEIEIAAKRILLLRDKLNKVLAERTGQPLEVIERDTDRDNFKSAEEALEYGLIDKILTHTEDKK
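ClpP 10 microg/mL final, pH 8 Tris/KCl buffer with BSA, glycerol, Tween-20; compound pinned in; FRET-FV substrate; RT 20 min; Ex320/Em430; ΔFRET vs ADEP 5.8 microM, DMSO, no enzyme.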
TRPML1 blocker = human mucolipin-1 channel inhibition; Q9GZU1; TRPML1-inducible cells, Ca2+ dye fluorescence, FDSS; stronger effect = lower value; inhibition of EC80 agonist-evoked calcium signal; activity change, negative = inhibition, % (no concentration beside the values); 390,000 compounds, 0.02% hits; AID 624415; in the data active means activity change below about -50%; inconclusive means about -30% to -50%; inactive means above about -30%;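 note: stimulus is agonist 54-4 at its EC80 concentration; % is set by controls: 0 for no effect and ±100 for the full control effect; compound concentration not given in the record; the text of the record puts the active cut at -80%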
Target sequence (Q9GZU1 whole entry, looked up): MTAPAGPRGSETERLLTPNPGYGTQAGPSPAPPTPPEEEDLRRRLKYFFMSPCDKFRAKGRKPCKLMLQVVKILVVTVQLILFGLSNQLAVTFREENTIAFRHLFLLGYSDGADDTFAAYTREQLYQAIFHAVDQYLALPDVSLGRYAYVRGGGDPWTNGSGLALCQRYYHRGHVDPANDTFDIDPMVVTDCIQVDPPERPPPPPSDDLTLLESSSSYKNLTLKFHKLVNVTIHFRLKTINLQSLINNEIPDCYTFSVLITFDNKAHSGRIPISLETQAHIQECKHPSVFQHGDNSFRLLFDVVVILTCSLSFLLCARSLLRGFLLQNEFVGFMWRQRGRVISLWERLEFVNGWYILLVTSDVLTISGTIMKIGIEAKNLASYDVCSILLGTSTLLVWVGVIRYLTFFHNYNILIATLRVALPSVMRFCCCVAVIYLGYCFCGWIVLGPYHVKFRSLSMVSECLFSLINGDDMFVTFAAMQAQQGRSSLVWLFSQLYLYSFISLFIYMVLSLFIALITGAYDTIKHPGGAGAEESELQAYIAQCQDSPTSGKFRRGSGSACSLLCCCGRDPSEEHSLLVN
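Tet-induced TRPML1-DL cells loaded with Ca8 no-wash calcium dye were read kinetically on FDSS. Compound addition was followed by EC80 agonist 54-4 (4 uM final); inhibition was read over 110 s.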
gsp agonist = agonists of gsp mutant (McCune-Albright syndrome); 340,000 compounds, 0.13% hits; gsp mutant cells, cAMP HTRF, 30 min; control for the full effect not named in the record; Potency, µM (series often up to 76.9 µM), for the others: at the highest dose activation (cAMP increase), most hits filed as activators; AID 624287; active = well fitted activation curve with a large enough effect; inconclusive = small, poorly fitted or top-dose-only effect, or another doubt; inactive = no such curve, though single readings can be large or run the other way; cell line not stated here;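 note: phosphodiesterase inhibitor Ro 20-1724 added with compounds to block cAMP breakdown; potency is the fitted concentration of half-maximal effect; nearly all actives have a fitted effect of over 60% in size; about a fifth of the inactives were tested at one dose only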
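Cells in DMEM/10% FBS with G418 were pretreated with compounds in DMSO plus […] (300 uM stock) for 30 min at 37C. cAMP was measured by HTRF (cAMP-d2 plus anti-cAMP antibody-K) after 30 min at room temperature.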
TRPML1 agonist = agonists of human TRPML1 channel; Q9GZU1; TRPML1-expressing cells, Ca2+ dye fluorescence, FDSS; host cell line not named in the record; reference of the full effect not given here; activation, % (no concentration beside the values); 410,000 compounds, 0.12% hits; in the data active = activation above about 50%; inconclusive = about 30% to 50%; inactive = below about 30%; note: 0% is about no effect; the text of the record puts the active cut at 80%
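Calcium fluorescence on an FDSS kinetic reader gave the read-out. Tet-induced TRPML1-DL cells were plated overnight, dye-loaded (Ca8 with quencher, 45-90 min, room temperature, dark), then read 110 s after compound addition, and again 110 s after 4uM final 54-4 (EC80).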
Menin MLL FP FL = menin-MLL binding inhibition, fluorescein peptide | Fluorescence polarization, fluorescein-MLL peptide displacement from menin | FP activity change, % at 61.4 µM | 290,000 tested, under 10 active | AID 1766; inconclusive = falling polarisation curve, or a change in total fluorescence; inactive = total fluorescence flat and polarisation flat or rising; no compound was filed as active; the % refers to the polarisation; negative = inhibition;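 note: % of control where 0% means no effect; inhibitors lower the polarisation; unlabelled MLL peptide was the positive control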
Numbers without * were called inactive; ? = inconclusive; . = not tested or not shown; & = joins results of further samples; [ ] = dose if it differs, or a comment.

SMILES	ClpP mod	gsp antagonist	TRPML1 agonist	Menin MLL FP FL	TRPML1 blocker	gsp agonist
COc1ccccc1CNc1nc(-c2cc(C)n(C)c2C)cs1	.	-16.0%	0.1	-25.8	-5.9	10.6%[15.4 µM]
CCn1c(SCC(=O)c2cc(OC)ccc2OC)nnc1C(C)C	4.6%	9.0%	-0.2	3.1	30.0	-2.7%
CC(Cc1cccnc1)NC(=O)c1cc(COc2ccc(F)cc2Cl)on1 (stereo unspecified)	1.4%	-1.2%	0.9	.	4.2	-3.0%
CCOc1ccc(N(C)S(=O)(=O)c2ccc(C)c(C(=O)NCc3ccccc3OC)c2)cc1	-1.8%	-20.6%	1.1	.	6.2	-8.1%
COc1ccc(NC(=O)c2cnc3cc(C)ccn3c2=O)c(OC)c1	-6.1%	.	-0.9	.	-4.8	.
CN1C(=O)Cc2cc(S(=O)(=O)Nc3ccc(Cl)cc3)ccc21	.	2.3%	0.1	5.4	8.9	6.4%
O=C(NCc1ccccn1)c1ccc(Cl)c(NC2=NC3CS(=O)(=O)CC3S2)c1 (stereo unspecified)	0.1%	-4.7%	0.1	.	-6.5	-51.5%[inhibitor]
O=C(Nc1nc2ccccc2c(=O)s1)c1ccco1	-3.5%	-2.1%	-0.5	4.8	-0.4	?
CN(C)C(=O)CSc1nnc(CCNC(=O)OC(C)(C)C)o1	-1.0%	10.1%	0.4	2.1	2.2	-46.0%[inhibitor]
C/C(=N/NS(=O)(=O)c1cc(C)ccc1C)c1ccc2c(c1)OCO2	1.7%	-5.2%	1.3	-2.5	-15.0	20.2%
N#CCSc1nc2sccc2c(=O)n1-c1ccccc1	.	1.3%	0.0	13.7	6.8	8.1%[15.4 µM]
CCCCCCSc1ccc([C@@H]2[C@H]3C(=O)N(CC)C(=O)[C@H]3[C@]3(C(=O)OC)CCCN23)cc1	-4.8%	-13.8%	-1.0	.	25.4	.
O=C(c1[nH]ncc1-c1cccc(Br)c1)C1CO1 (stereo unspecified)	0.0%	-8.0%	-0.7	1.9	19.2	12.1%[15.4 µM]
CC(C)(C)n1nnnc1C(c1cccnc1)N(Cc1ccccc1)Cc1cccs1 (stereo unspecified)	-0.5%	-7.4%	?	0.1	-3.4	4.2%
O=C(O)C1(S(=O)(=O)c2ccc(Cl)cc2)CCC1	.	8.6%	0.7	-5.2	1.1	2.2%[15.4 µM]
Cc1cccc2sc(NNC(=O)C3=COCCO3)nc12	.	.	2.3	2.9	20.8	-5.0%[15.4 µM]
Cc1ccc(-c2nnc(N(C)C(=O)C3CCCO3)s2)cn1 (stereo unspecified)	32.3%	1.1%	0.3	-1.2	36.7	-13.8%
O=C1CCC(=O)N1CCSC(=S)N1CCSCC1	.	9.7%	1.2	-6.8	-7.5	19.4%[15.4 µM]
CN(CC(=O)Nc1c(Cl)cccc1Cl)C(=O)CCCN1C(=O)c2ccccc2C1=O	0.7%	-5.1%	1.3	3.2	7.9	-3.1%
O=C(Cc1ccc(Cl)cc1)Nc1ccccc1Sc1ccccc1	-3.2%	-17.4%	0.1	6.1	-20.5	10.3%
O=C(N/C(=C/c1cn(-c2ccccc2)nc1-c1ccccc1)C(=O)N1CCOCC1)c1ccc(Cl)cc1Cl	1.3%	-9.9%	0.2	0.1	27.8	-13.9%
c1ccc2c(c1)CCNC2c1ccncc1 (stereo unspecified)	0.2%	1.3%	-0.2	2.4	-6.2	18.7%[15.4 µM]
O=C1CCC[C@@H]2[C@H](Cc3ccccc3)[C@@H](O)C[C@@H]3CCN1[C@@H]32	0.1%&1.1%	-2.3%	-0.4&0.2	.	3.0	.
O=C(O)c1ccc(CN2C(=O)c3ccccc3S2(=O)=O)cc1	-0.2%	-3.8%	1.3	-0.6	1.7	11.7%
Oc1ccccc1Cn1nnc2ccccc21	.	3.3%	1.3	0.1	-11.4	-18.1%
COc1cccc(CN2CCN(Cc3cc4ccccc4o3)CC2CCO)c1 (stereo unspecified)	.	4.0%	-0.5	-2.3	-5.8	-25.8%
O=C(CSc1ccccc1)NCC(c1ccco1)N1CCCCC1 (stereo unspecified)	-4.2%	16.2%	1.5	.	-12.6	-14.1%
COC(=O)c1cc2sc(Cl)cc2n1CC(=O)Nc1cc(C)cc(C)c1	-3.4%	.	-0.3	.	16.0	.
O=C(NC1CC1)C1=C[C@@H](c2ccc(C(F)(F)F)cc2)C[C@@H](OCc2ccc(CO)cc2)O1	-0.2%	-8.9%	0.8	.	43.8	-36.4%[inhibitor]
CCOC(=O)c1ccc(N/C(=N/S(=O)(=O)c2ccccc2)c2ccccc2)cc1	0.9%	?	2.3	4.5	3.2	3.5%
COC(=O)c1cc[n+](CC(=O)c2ccccc2)cc1	-1.1%	-5.4%	0.7	-0.3	-10.5	-33.5%[inhibitor]
O=S(=O)(c1ccc2nc(-c3ccccc3)[nH]c2c1)N1CCN(c2cccc(Cl)c2)CC1	1.0%	1.5%	0.1	4.3	5.8	-5.7%[15.4 µM]
CCOc1ccc(/C=C/c2nc(C#N)c(Nc3ccc(OC)cc3)o2)cc1	-29.9%	.	-0.6	.	-9.0	.
CCCCNC(=O)[C@@H]1CCCN1S(=O)(=O)c1cccc2cccnc12	-0.3%	6.1%	-0.4	.	3.6	.
Cc1c(Cl)cccc1NC(=O)Cn1c(=O)n(Cc2nc(-c3ccccc3)no2)c(=O)c2cc3c(cc21)OCO3	-21.3%	.	0.8	.	-6.8	.
CCN(CC)C(=O)[C@H]1C[C@H](CC(=O)NC(C)(C)C)C(=O)N2CCc3c([nH]c4cc(CCC(=O)N(C)C)ccc34)[C@]12C	-2.4%	5.9%	-0.1	.	6.4	.
CC1CC(c2ccccc2)n2nc(NC(=O)CCc3ccccc3)nc2N1 (stereo unspecified)	-14.8%	-11.4%	0.6	-0.7	-7.3	-22.6%
Cc1cc(C(C)(C)C)oc1C(=O)N(CC(=O)NC1CCCC1)c1cccc(C(F)(F)F)c1	0.2%	-13.3%	51.6*	14.8	-6.0	-23.8%
COc1cccc(-c2cc(C(=O)Nc3ccc(OC)c(OC)c3)no2)c1	13.8%	-21.8%	0.1	0.3	7.3	5.3%
O=C(COc1ccccc1-c1ccccc1)NNC(=O)NC1CCCCC1	.	.	0.3	1.7	2.3	0.6%[15.4 µM]
COc1ccc(CN(C)C(=O)COC(=O)c2c(-c3ccccc3Cl)noc2C)cc1	.	?	2.9	1.3	23.9	3.0%[15.4 µM]
COc1cn(CC(=O)Nc2ccc(C)cc2)c(CN2CCCCC2)cc1=O	3.4%	.	1.1	.	5.0	.
C#CCOCCOCCOCCNc1nc(N2CCN(C(=O)CCCCCCCCCCNC(=O)Cn3cc(CCCCCN)nn3)CC2)nc(N2CCN(C(=O)CCCCCCCCCCNC(=O)Cn3cc(CCCCCN)nn3)CC2)n1	1.1%	9.8%	0.5	.	-7.7	.
Cc1cc(C)cc(NC(=O)[C@H]2O[C@@H]3OC(C)(C)O[C@@H]3[C@H]3OC(C)(C)O[C@H]32)c1	-2.9%	.	-1.1	.	3.5	.
O=C(Cc1ccccc1)N1CCN=C1SCc1cccc([N+](=O)[O-])c1	.	12.1%	0.2	0.9	-8.3	-6.6%[15.4 µM]
O=C(Nc1cnn(Cc2ccc(Cl)cc2)c1)c1cccs1	2.1%	-0.9%	.	-1.3	.	-3.1%
COc1ccc(C(=O)Nc2ccccc2N2CCCCC2)cc1[N+](=O)[O-]	-2.5%	-2.2%	4.1	0.4	55.9	-19.8%
COc1ccccc1NS(=O)(=O)c1ccc(C(=O)N2CCCCCC2)cc1	1.5%	-0.3%	5.3	.	-11.1	60.9%[15.4 µM]
CCOC(=O)c1ccc(-c2ccc(/C=N/NC(=O)Cc3nnc(N)s3)o2)cc1	1.6%	7.9%	-0.6	4.2	3.6	-10.0%[15.4 µM]
CCCN1C(=O)C2(OCCO2)c2cc(Cl)ccc21	0.6%	-5.6%	0.6	4.4	-0.3	-4.8%

Later entries
SMILES	ClpP mod	gsp antagonist	TRPML1 agonist	Menin MLL FP FL	TRPML1 blocker	gsp agonist
C=CCNC(=S)NCC=C	-0.7%	10.9%	-0.5	-3.0	26.0	-25.2%
CCC1CN(C(=O)Nc2ccc(Br)cc2F)c2ccccc2S1 (stereo unspecified)	0.4%	.	0.6	.	13.3	.
COc1ccc(OC)c(/C=N/NC(=O)c2cnccn2)c1	?	-0.3%	0.4	1.7	-4.0	-8.4%[15.4 µM]
NS(=O)(=O)c1ccc(NC(=O)C(Sc2ccccc2)c2ccccc2)cc1 (stereo unspecified)	-0.5%	-10.9%	-0.8	2.1	1.9	-5.6%
C[C@H](CO)N1C[C@H](C)[C@H](CN(C)Cc2ccc(Oc3ccccc3)cc2)Oc2ccc(NC(=O)Nc3cccc4ccccc34)cc2CC1=O	3.9%	-12.4%	0.1	.	5.0	.
CC(C)n1c(SCC(=O)c2ccc3c(c2)OCCO3)nc2c1c(=O)n(C)c(=O)n2C	-1.1%	-1.0%	0.6	0.6	13.1	7.2%
O=C(CC1CCCC1)Nc1ccc(Cl)c(S(=O)(=O)N2CCOCC2)c1	-2.9%	-11.3%	0.8	.	6.1	-15.5%[15.4 µM]
S=C(NCC1CCCO1)N1CCN(c2nc(-c3ccc(Cl)cc3)cs2)CC1 (stereo unspecified)	.	50.1µM*	2.1	0.7	6.8	6.4%[15.4 µM]
c1csc(-c2nn3c(Cn4nnc5ccccc54)nnc3s2)c1	-24.6%	9.1%	0.4	-0.3	11.2	17.3%
c1ccc2c(c1)nc(N1CCCCCC1)c1nncn12	-18.8%	.	1.1	.	5.5	5.0%
CCOC(=O)C1=CNS(=O)(=O)NC1c1ccc(C(F)(F)F)cc1 (stereo unspecified)	-3.7%	3.4%	-0.2	.	-0.4	.
Cc1cccc(N2CCN(S(=O)(=O)c3c(C)[nH]c(C)c3C(=O)N3CCCC3)CC2)c1C	-2.1%	-7.0%	0.3	3.3	-24.7	15.4%
C=CCOc1ccc(Br)cc1CNC(C)(C)C	.	6.1%	0.5	-0.7	4.8	-10.8%[15.4 µM]
COc1ccc(OCCCn2cccc2/C=C2/C(=N)N3OC(C)=CC3=NC2=O)cc1	-2.1%	?	2.0	1.3	-12.4	18.0%
O=C(CN1CCOCC1)NNC(=S)Nc1ccccc1	-3.0%	9.7%	0.3	-5.1	3.3	9.3%
